Bioassay records: PubChem BioAssay, National Center for Advancing Translational Sciences (NCATS)
ELG1 genotox: qHTS screen for small molecules that induce genotoxicity in human embryonic kidney (HEK293T) cells expressing luciferase-tagged ELG1. HEK293T ELG1-luciferase reporter, luminescence, 16 h. Potency, µM (top dose mostly 46 µM), without a hit: at the top dose activity change, positive = activation, hits mostly activators. 1.3% of 330,000 active; also: potency is read from the fitted curve at half-maximal effect; % of control where 0% means no effect; nearly all actives have a fitted effect of over 60% in size
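Step 1: seed 2,000 HEK293T ELG1-luciferase cells per well. Step 2: add compound or DMSO, incubate 16 hr at 37 °C. Step 3: ONE-Glo, 30 min at room temperature, read luminescence.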
BRCA1 expr up: qHTS Assay to Identify Small Molecule Activators of BRCA1 Expression. 1.1% of 380,000 active. AID 624202, 2012. MCF7-BRCA1-FFLuc reporter, luminescence, 48 h; response scale: scaled: vehicle 0%, 10 µM genistein 100%. Potency, µM (doses to about 46.1 µM), without a hit: at the top dose activation, actives largely listed as activators; also: potency is read from the fitted curve at half-maximal effect; nearly all actives have a fitted effect of over 80% in size; some results filed as inactive show a strong effect at the top dose
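Using MCF7 cells harboring a BRCA1 firefly luciferase reporter, plated 2 h before compound pinning, the screen measured luminescence after 48 h incubation. Responses were normalized to DMSO and 10 microM genistein, then fitted for concentration-effect.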
RORg inh: qHTS for inhibitors of ROR gamma transcriptional activity; 5.4% of 310,000 active; Drosophila S2 Gal4-RORgamma UAS-luciferase reporter, 20 h; Potency, µM (highest dose often 53.6 µM), for the others: top-dose activity change, negative = inhibition, usual class: inhibitors; also: potency is read from the fitted curve at half-maximal effect; % is scaled to controls: 0 for no effect and ±100 for the full control effect; nearly all actives have a fitted effect of over 60% in size
Target sequence (P51450 whole entry, looked up, the tested form may be a part): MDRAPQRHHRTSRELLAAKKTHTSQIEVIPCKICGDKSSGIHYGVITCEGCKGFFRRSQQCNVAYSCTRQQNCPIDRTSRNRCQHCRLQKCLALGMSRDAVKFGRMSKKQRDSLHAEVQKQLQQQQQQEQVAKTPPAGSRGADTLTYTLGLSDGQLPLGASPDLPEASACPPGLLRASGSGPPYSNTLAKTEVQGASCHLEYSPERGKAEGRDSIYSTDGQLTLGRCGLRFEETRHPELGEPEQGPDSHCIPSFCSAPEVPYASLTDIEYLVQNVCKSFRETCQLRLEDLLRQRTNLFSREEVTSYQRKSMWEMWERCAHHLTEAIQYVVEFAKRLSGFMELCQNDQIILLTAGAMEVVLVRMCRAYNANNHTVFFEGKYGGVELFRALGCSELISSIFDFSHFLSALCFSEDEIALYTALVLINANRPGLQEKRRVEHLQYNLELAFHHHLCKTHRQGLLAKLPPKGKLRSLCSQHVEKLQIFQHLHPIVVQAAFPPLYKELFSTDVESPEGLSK
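Compounds are pin-transferred onto Drosophila Schneider cells expressing a copper-inducible Gal4–ROR gamma transactivation domain fusion. After 1 hr, copper sulfate is added to 700 uM final; luciferase is read 20 hr later.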
Gal4-VP16 FLuc: VP16 counterscreen qHTS for inhibitors of ROR gamma transcriptional activity. Drosophila S2 Gal4-VP16 UAS-luciferase, luminescence, 20 h. 3.5% of 310,000 active. Potency, µM (doses to about 53.6 µM), for inactives: at the highest dose activity, negative = inhibition, most hits filed as inhibitors;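 also: Gal4-VP16 expression switched on by copper sulfate through the metallothionein promoter; potency is read from the fitted curve at half-maximal effect; % is scaled to controls: 0 for no effect and ±100 for the full control effect; nearly all actives have a fitted effect of over 50% in size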
Menin MLL FP TR: qHTS Assay for Inhibitors Targeting the Menin-MLL Interaction in MLL Related Leukemias: Competition With Texas Red Labeled MLL-derived Mutant Peptide. Menin + Texas Red MLL mutant peptide, fluorescence polarization. AID 1768, 2009. Potency, µM (series often up to 61.6 µM), for the others: top-dose FP activity change, negative = inhibition, most hits filed as inhibitors. O00255. 0.23% of 270,000 active; active = well fitted inhibition curve with a large enough effect in the polarisation, with a control signal flat, not every such curve was filed as active; inconclusive = small, poorly fitted or top-dose-only effect, or effect the other way, or a change in a side signal; inactive = no such curve, though single readings can be large or run the other way; the % refers to the polarisation; also: potency is read from the fitted curve at half-maximal effect; % of control where 0% means no effect; many of its hits are not listed in these tables
FLuc counter: qHTS profiling assay for firefly luciferase inhibitor/activator using purifed enzyme and Km concentrations of substrates (counterscreen for miR-21 project) | purified FLuc, Km substrates, luminescence inhibition | 6.9% of 360,000 active | Potency, µM (titrated, usually from 57.5 µM), for inactives: top-dose activity change, negative = inhibition, hits mostly inhibitors;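 also: potency is read from the fitted curve at half-maximal effect; plate controls were vehicle for no effect and reference inhibitor for full effect; nearly all actives have a fitted effect of over 55% in size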
Target sequence (P08659 whole entry, looked up): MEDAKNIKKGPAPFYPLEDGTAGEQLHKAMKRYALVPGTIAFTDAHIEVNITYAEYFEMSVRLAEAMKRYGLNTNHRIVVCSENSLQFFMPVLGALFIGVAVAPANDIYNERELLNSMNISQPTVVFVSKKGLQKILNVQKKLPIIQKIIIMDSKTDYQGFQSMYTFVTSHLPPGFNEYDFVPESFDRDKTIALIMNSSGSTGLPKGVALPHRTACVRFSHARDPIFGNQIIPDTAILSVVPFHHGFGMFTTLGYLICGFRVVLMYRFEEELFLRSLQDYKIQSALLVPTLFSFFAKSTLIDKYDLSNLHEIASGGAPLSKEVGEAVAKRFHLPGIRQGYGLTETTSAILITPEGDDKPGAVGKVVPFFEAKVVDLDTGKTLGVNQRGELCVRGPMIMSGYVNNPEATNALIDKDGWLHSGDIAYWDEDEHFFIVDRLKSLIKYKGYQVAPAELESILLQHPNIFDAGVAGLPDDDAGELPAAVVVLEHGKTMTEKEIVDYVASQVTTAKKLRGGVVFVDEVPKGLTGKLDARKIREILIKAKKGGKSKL
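Biochemical qHTS of compounds, final roughly 60 µM downward over six points, against 10 nM purified firefly luciferase using Km concentrations of substrates (10 uM D-luciferin, 10 uM ATP) in Tris acetate pH 7.5 buffer; luminescence output.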
Giardia kill: Small Molecules that selectively kill Giardia lamblia: qHTS; Giardia lamblia trophozoite viability; AID 540267, 2011; 0.15% of 340,000 active; activity change, % at 7.66 µM, hits read low; in the data active = activity change below about -80%; inconclusive = between about -30% and that limit;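 also: parasites exposed to compound for two days anaerobically before the ATP read; % is scaled to controls: 0 for no effect and ±100 for the full control effect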
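Trophozoites 100 cells/well + cpd; 48 hrs, 37 deg C, anaerobic. ATPLite 1-Step added, 15-30 min RT, luminescence read (ATP-based viability).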
NPC1 promoter act: qHTS Assay for NPC1 Promoter Activators. Huh7 NPC1 promoter luciferase reporter, 24 h. Potency, µM (titrated, usually from 9.22 µM), without a hit: at the highest dose activation, most hits filed as activators. 2.4% of 320,000 active;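 also: potency is read from the fitted curve at half-maximal effect; % of control where 0% means no effect; nearly all actives have a fitted effect of over 60% in size; reporter is driven by a mutant NPC1 promoter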
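Compounds in DMSO were transferred onto Huh7 NPC1-luciferase reporter cells pre-incubated 2 h; after 24 h at 37 °C, Amplite reagent was dispensed and luminescence recorded 10 min later.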
Rab9 promoter act: qHTS Assay for Rab9 Promoter Activators. Huh7 Rab9 promoter-luciferase reporter, luminescence, 24 h. Potency, µM (series often up to 9.22 µM), inactives show at the top dose activation, negative = inhibition, most hits filed as activators. AID 485297, 2010. 2.8% of 320,000 active; also: potency is read from the fitted curve at half-maximal effect; % of control where 0% means no effect; nearly all actives have a fitted effect of over 60% in size
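Luminescence from Amplite-detected luciferase (10 minutes, ambient) reports Rab9 promoter activation. Before that, stable Rab9-luciferase Huh7 cells (1500/well, reduced-serum OP-MEM I plus 10% FBS) were exposed to compound for 24 hours at 37C.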
p53 reactivator: qHTS assay for re-activators of p53 using a Luc reporter; AID 504706, 2011; 0.063% of 320,000 active; H1299 p53-A138V BP100-luciferase reporter, luminescence, 24 h; Potency, µM (titrated, usually from 92.2 µM), inactives show at the top dose activity change, positive = activation, most hits filed as activators; also: potency is read from the fitted curve at half-maximal effect; % of control where 0% means no effect; nearly all actives have a fitted effect of over 45% in size
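H1299 (p53-null), stable ts p53-A138V + BP100-Luc; 1000 cells/well, Opti-MEM/10% FBS; cpd 4 pt, 1:5; 24 h, 37 deg C, 5% CO2; detection reagent 10 min RT; luminescence.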
* marks the source's active call; other numbers are inactive results; ? = inconclusive; / = no result given; [ ] = another dose, or the depositor's remark. Unless noted, calls follow the shape of the dose curve; as a rule, active = well fitted curve in the direction sought with a large enough effect; inconclusive = small, poorly fitted or top-dose-only effect, or another doubt; inactive = no such curve, though single readings can be large; an effect the other way counts as inactive or inconclusive. Only part of the results is shown; count on the stated rates, not on these rows.

The opening 2 records (preview)
smiles | NPC1 promoter act | Menin MLL FP TR | RORg inh | Gal4-VP16 FLuc | p53 reactivator | ELG1 genotox | Rab9 promoter act | BRCA1 expr up | Giardia kill | FLuc counter
O=C(O)CSc1ccccc1C(=O)O | 2% | -3% | 1% | -2% | 5% | -16% | -7% | 6% | -1 | 4%
O=c1c2ccccc2[nH]c(=S)n1CCN1CCCC1 | -1% | -12% | -4% | 4% | -3% | -1% | 2% | -12% | 6 | 3%

The list itself, repeating the preview:
smiles | NPC1 promoter act | Menin MLL FP TR | RORg inh | Gal4-VP16 FLuc | p53 reactivator | ELG1 genotox | Rab9 promoter act | BRCA1 expr up | Giardia kill | FLuc counter
O=C(O)CSc1ccccc1C(=O)O | 2% | -3% | 1% | -2% | 5% | -16% | -7% | 6% | -1 | 4%
O=c1c2ccccc2[nH]c(=S)n1CCN1CCCC1 | -1% | -12% | -4% | 4% | -3% | -1% | 2% | -12% | 6 | 3%
O=C(CC1Nc2ccccc2NC1=O)NCc1cccnc1 (stereo not drawn) | 4% | -14% | -22% | -3% | 2% | 0% | 4% | 2% | 20 | 5%
COC(=O)c1cn(C(=O)c2cc(C)cc(C)c2)c2ccccc12 | -2% | 14% | 11% | 3% | 11% | -2% | -8% | -10% | -13 | 0%
CCOC(=O)c1ccc(NC(=O)CSCc2ccco2)cc1 | 2% | 15% | 4% | 4% | 4% | 1% | 3% | 36% | -16 | ?
Clc1ccc(C(c2nnnn2C2CCCCC2)N(Cc2cccnc2)Cc2ccco2)cc1 (stereo not drawn) | -1% | 1% | 25% | -3% | 1% | -7% | -3% | -42% | 14 | -2%
CN1CCN(NC(=O)c2ccc(Br)c(S(=O)(=O)N3CCOCC3)c2)CC1 | -3% | -5% | 7% | 1% | 5% | 1% | -8% | 14% | -13 | -1%
CC(=O)Nc1nonc1-c1nc2ccccc2n1Cc1ccccn1 | 1% | 15% | -3% | 0% | -11% | -1% | 2% | -1% | -4 | 2%
CCOc1ccc(C2CC(c3ccc(CC)cc3)Nc3nc(N)nn32)cc1 (stereo not drawn) | 25% | -21% | 1% | -2% | 22% | 7% | 18% | 7% | 9 | -16%
Cc1ccccc1-n1ncc(C(C)NC(=O)c2ccco2)c1C (stereo not drawn) | 2% | -2% | ? | 9% | 8% | 2% | 5% | 40% | 2 | ?
COc1ccc(C(C(=O)NC2CCCC2)N(Cc2ccc(F)cc2)C(=O)c2ccn[nH]2)cc1OC (stereo not drawn) | 1% | / | -10% | 3% | -7% | -1% | -1% | -12% | 10 | 5%
Cn1c(=O)c2c(nc(Br)n2CCc2ccccc2)n(C)c1=O | 8% | -6% | 40% | 13% | 2% | 0% | 0% | -28% | -4 | 0%
CCN(CC)S(=O)(=O)c1cc([N+](=O)[O-])ccc1NNC(=O)Nc1ccc(F)cc1 | -1% | 13% | 61% | 10% | 4% | -16% | 0% | 8%[1.84 µM] | 12 | 0%
CC12CC(NC(=O)N1Cc1ccccc1)c1ccccc1O2 (stereo not drawn) | -1% | -25% | 36% | 9% | -4% | -4% | -3% | 0% | -12 | 3%
O=C(NC(=S)Nc1ccc(S(=O)(=O)Nc2ncccn2)cc1)c1cccc(Br)c1 | 1% | 25% | -22% | -10% | -5% | 2% | -6% | 0% | 5 | -10%
CC(C)[C@H](CN(N=O)[C@@H](Cc1ccccc1)CN(C)N=O)N(CCc1ccccc1)N=O | 0% | -4% | 12% | 0% | -2% | -8% | 0% | -37% | -4 | 0%
CC1CCC(C(=O)NC(C(=O)Nc2ccccn2)C(C)C)CC1 (stereo not drawn) | 3% | -5% | 7% | -3% | -5% | -22% | -6% | 0% | 16 | 2%
CCCC(=O)Nc1ccc(Cl)c(NC(=O)CC)c1 | -2% | 12% | ? | -1% | -4% | -5% | -4% | -2% | 0 | 8%
Cc1nc2c([nH]1)C1(CCN(Cc3ccccc3)CC1)C(C#N)=C(N)O2 | -2% | 0% | -27% | -1% | 8% | -12% | -1% | 3% | -16 | -1%
O=C(NC(=S)NCCN1CCOCC1)c1ccccc1Br | 3% | -1% | -22% | 0% | 10% | -1% | -13% | -4% | -21 | 5%
COc1cc(/C=N/N2CCN(c3ccc(Cl)cc3)CC2)cc(OC)c1OC(C)=O | -6% | 27% | 15% | -1% | 17% | 0% | 0% | 3% | 17 | -7%
CC(NC(=O)c1ccco1)c1ccc2c(c1)OCO2 (stereo not drawn) | 2% | / | -5% | -4% | 9% | -11% | -4% | 2% | 8 | 2%
NC(=O)c1ccccc1NS(=O)(=O)c1cccs1 | -1% | 14% | 6% | 2% | -8% | -1% | -2% | -1% | ? | 4%
COc1ccc(NC(=O)c2cccnc2SC)cc1S(=O)(=O)N1CCCCC1 | -1% | -5% | 6% | 2% | -10% | -1% | -1% | -25% | 4 | 0%
O=C(O)c1ccccc1C(=O)Nc1cccc([N+](=O)[O-])c1 | -1% | 2% | 9% | -3% | 3% | 3% | -3% | 11% | -18 | 2%
CCCN(CCC)CCNC(=O)CS(=O)Cc1nc(-c2ccc(C)cc2)oc1C (stereo not drawn) | -4% | -14% | 8% | 4% | -5% | 2% | 1% | 9% | 4 | -2%
CCc1cc(-c2n[nH]c(=S)n2N)n(C)n1 | -3% | -3% | ? | -10% | -2% | 1% | 4% | -30% | 2 | 3%
O=C(Nc1cccc(C(=O)N2CCOCC2)c1)c1ccccc1 | 8% | 18% | 19% | 0% | 3% | 1% | 4% | 2% | 4 | -12%
CC(=O)Nc1ccc2nsnc2c1 | -3% | / | 2% | -2% | -4% | -2% | 0% | -1% | -18 | 5%
O=C(OCCN1C(=O)c2cccc3c(N4CCOCC4)ccc(c23)C1=O)c1ccccc1Cl | -15% | 9% | ? | ? | 16% | -17% | -12% | -65% | -17 | -1%
CCO/N=C(/C)c1c(O)c(C)c(-c2ccccc2)n(-c2ccccc2)c1=O | -1% | -27% | 1% | 24% | -4% | 2% | -3% | -10% | -14 | 2%
O=C(CSc1nnc(-c2ccccn2)n1-c1ccccc1)Nc1ccc2c(c1)OCO2 | / | -1% | -17% | -23% | / | / | / | -15% | 40[activator] | 2%
O=C(CSc1n[nH]c(=O)[nH]c1=O)N1CCCCCC1 | -5% | / | 1% | -1% | 8% | 0% | -4% | 6% | 14 | -3%
COC(=O)N/N=C/c1cc(C)n(-c2ccc(F)cc2)c1C | 0% | -1% | -12% | 0% | 4% | ? | 21% | -1% | -3 | 24µM*
O=C(/C=C/c1ccc(F)cc1)NC(=S)NNC(=O)c1cnccn1 | -17% | / | -19% | 1% | 3% | -6% | -23% | -55% | 0 | ?
CSc1ccc(CN2CCC(n3nccc3NC(=O)C3CCOC3)CC2)cc1 (stereo not drawn) | 2% | / | -5% | -7% | 0% | -3% | -1% | -17% | -2 | 6%
Cc1ccc(-c2nc(N)n(C(=O)c3cccnc3)n2)cc1 | 6% | -19% | 5% | -1% | 9% | 11% | -4% | 39% | -4 | -7%
CCOc1ccc(S(=O)(=O)Nc2nc3ccccc3nc2Nc2ccc(N3CCOCC3)cc2)cc1 | -3% | ? | ? | 6% | 30% | -4% | -5% | 19% | -7 | 11µM*
CC(C)(C)OC(=O)C1C(=O)CC(C)(O)C(C(=O)OC(C)(C)C)C1c1cccnc1 (stereo not drawn) | 5% | -2% | -13% | 4% | 3% | -3% | 3% | 0% | -12 | 2%
CC1CCCC(C)N1/N=C/c1cc(Br)c(O)c(Br)c1 (stereo not drawn) | -1% | -6% | -17% | ? | 2% | 1% | -5% | / | / | 2%
CCOc1ccc2c(=O)c(-c3ccc4c(c3)OCCCO4)c(C)oc2c1 | -3% | -14% | 9% | -2% | 9% | -1% | 7% | -6% | -11 | -6%
COC(=O)CSC1=C(C#N)C(c2ccc(C(C)C)cc2)CC(=O)N1 (stereo not drawn) | -2% | -5% | 29% | 4% | 1% | 0% | 2% | -12% | -7 | 0%
N#Cc1c(SCC(=O)Nc2nccs2)sc2c(O)cc(=O)[nH]c12 | 0% | ? | 15% | 19% | 10% | 11% | -4% | 11% | ? | 1%
CSc1ccc(-c2c(C#N)c(N)nc3c2c(C)nn3-c2ccccc2)cc1 | -5% | -6% | 17% | -24% | 7% | -7% | -6% | -37% | -16 | -1%
CCn1c(=O)c2cc(C(=O)Nc3cccc(C(C)=O)c3)sc2c2ccccc21 | -1% | / | -8% | 5% | -1% | ? | 1% | 9% | -10 | -1%
O=C1c2cccnc2C(O)N1Cc1ccco1 (stereo not drawn) | -1% | -2% | -50% | 4% | 0% | 0% | -2% | -12% | -6 | 0%
Cc1ccc(S(=O)(=O)/N=C/c2c(O)ccc3ccccc23)cc1 | 2% | 24% | 18µM* | ? | -6% | 0% | -2% | -19% | 3 | 2%
